# D2 ag: Beta-Arrestin HTS for Positive Allosteric Modulators of the Human D2 Dopamine Receptor: Agonists; D(2) dopamine receptor (Homo sapiens), P14416; DiscoveRx PathHunter D2 beta-arrestin, luminescence, 90 min; 100% = 57 uM dopamine signal; activation, % (no concentration beside the values); 0.084% of 360,000 active; in the data active = activation above about 40%; inconclusive = about 15% to 40%; inactive = below about 15%; further: compound concentration not given in the record; the text of the record calls up to 30% inactive
# Target sequence (P14416 whole entry, looked up): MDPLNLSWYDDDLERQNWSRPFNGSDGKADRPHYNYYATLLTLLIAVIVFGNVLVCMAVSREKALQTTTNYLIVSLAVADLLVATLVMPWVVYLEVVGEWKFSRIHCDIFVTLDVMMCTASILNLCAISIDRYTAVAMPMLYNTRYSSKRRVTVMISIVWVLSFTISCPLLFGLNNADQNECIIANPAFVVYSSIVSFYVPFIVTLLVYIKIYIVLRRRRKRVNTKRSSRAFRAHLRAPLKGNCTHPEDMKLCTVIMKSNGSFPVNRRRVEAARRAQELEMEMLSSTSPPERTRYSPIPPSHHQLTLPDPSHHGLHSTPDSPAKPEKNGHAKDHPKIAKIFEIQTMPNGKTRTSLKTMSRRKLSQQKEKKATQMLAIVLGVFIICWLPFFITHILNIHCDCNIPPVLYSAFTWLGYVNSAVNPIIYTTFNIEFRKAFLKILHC
#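 DiscoveRx PathHunter D2 beta-arrestin cells (2,100/well) attached overnight, then compound-stimulated 90 min at 37 C in HBSS/10 mM HEPES/0.1% Tween-20 buffer; beta-galactosidase complementation read by luminescence after 1 h at ambient temperature. Dopamine 57 uM final (EC100) as control.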
# Sfp inh: qHTS Assay for Inhibitors of Bacillus subtilis Sfp phosphopantetheinyl transferase (PPTase). AID 1490, 2009. 3.5% of 310,000 active. 4'-phosphopantetheinyl transferase ffp (Bacillus subtilis), Q9F4F7. Potency, µM, for inactives: max response, negative = inhibition, actives largely listed as inhibitors. Biochemical Sfp PPTase activity, qHTS; active means well fitted inhibition curve with a large enough effect; inconclusive means small, poorly fitted or top-dose-only effect, or another doubt; inactive means no such curve, though single readings can be large or run the other way;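 further: the enzyme is Sfp with the accession as filed and its product quenches rhodamine fluorescence; potency means the concentration at half of the fitted maximal effect; 0% = enzyme reaction without inhibitor and -100% = no enzyme wells; top concentration of the series not given in the record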
#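 Compounds were incubated with enzyme (final 15 nM) for 15 min at room temperature before substrate addition started the reaction. Fluorescence at 525 nm excitation, 598 nm emission was recorded immediately and after 30 minutes.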
# D2 PAM: Beta-Arrestin HTS for Positive Allosteric Modulators of the Human D2 Dopamine Receptor: Potentiators; D(2) dopamine receptor (Homo sapiens), P14416; DiscoveRx D2 beta-arrestin cells, luminescence, 90 min; 100% = 57 uM dopamine signal; potentiation, % (concentration not given with the values); 0.23% of 360,000 active; AID 624464, 2012; active = potentiation of 50% or more; inconclusive = 30% to 50%; inactive = 30% or less;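 further: compound concentration not given in the record; tested on top of an EC20 dose of dopamine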
#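 D2 cells co-treated with compound plus 50 nM dopamine (EC20) for 90 min at 37 deg C to detect potentiation. Beta-arrestin recruitment was read as enzyme-fragment luminescence after 1 h at ambient temperature. Full response was set by 57 uM dopamine.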
# PINK1 modulator: A Quantitative High throughput Screen to Identify Chemical Modulators of PINK1 Expression; PINK1 immunofluorescence, high-content cytometry, 24 h; 0.2% of 410,000 active; AID 624263, 2012; Potency, µM (series often up to 76.6 µM), for the others: at the top dose activation (PINK1 increase), usual class: activators; active = well fitted activation curve with a large enough effect; inconclusive = small, poorly fitted or top-dose-only effect; inactive = flat fitted curve, though single readings scatter; cell line not stated here;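 further: potency means the concentration at half of the fitted maximal effect; % of control where 0% means no effect; nearly all actives have a fitted effect of over 65% in size; a mitochondrial uncoupler was the plate control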
#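 PINK1 protein, normally rapidly degraded, was detected by immunofluorescence after 24 hour compound treatment of a stable cell line. Titration data (5 concentrations) came from laser-scanning cytometry, with CCCP-treated wells as controls.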
# TRPV1 potentiator: HTS Assay for Compounds that Act as Potentiators of the Vanilloid Receptor 1; TRPV1-expressing cells, Fluo-8 calcium influx, capsaicin EC20 potentiation; host cell line not named in the record; control for the full effect not named in the record; Transient receptor potential cation channel subfamily V member 1 (Homo sapiens), Q8NER1; 0.02% of 320,000 active; potentiation, % at 8.33 µM; AID 540277, 2011; active means potentiation above 80%; inconclusive means 30% to 80%; inactive means below 30%; further: 0% is about no effect
#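 Cells expressing TRPV1 were dye-loaded with Fluo-8 and read kinetically: 10 s baseline, 3 min after compound (agonist portion), then 2 min after EC20 capsaicin (allosteric enhancer portion). Calcium-bound dye fluorescence at 480/520 nm.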
# CtBP-E1A blk: qHTS Assay for Inhibitors of the CtBP/E1A Interaction | CtBP / adenovirus E1A interaction (AlphaScreen) | AlphaScreen GST-E1A/His-CtBP binding, 1536-well; stronger effect = lower value; control for the full effect not named in the record | activity change, % (test concentration not listed) | 0.49% of 340,000 active | AID 651724, 2012; in the data active means activity change below about -65%; inconclusive means about -30% to -65%; inactive means above about -30%; further: on the % scale 0 is the no-effect control and ±100 the full control effect; compound concentration not given in the record
#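 Homogeneous bead-based format: GST-tagged E1A captured on glutathione donor beads, His-tagged CtBP on nickel acceptor beads; compounds precede bead addition by 2 h at 37 °C.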
# Six1-Eya2 inh: qHTS Assay for Inhibitors of the Six1/Eya2 Interaction; 0.56% of 360,000 active; AlphaScreen GST-Six1/His-Eya2 binding, biochemical; stronger effect = lower value; control for the full effect not named in the record; activity change, % (no concentration beside the values); in the data active = activity change below about -65%; inconclusive = about -30% to -65%; inactive = above about -30%; further: on the % scale 0 is the no-effect control and ±100 the full control effect; compound concentration not given in the record
#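 Compounds are tested against tagged Six1 and Eya2 proteins bridged by glutathione donor and nickel acceptor beads; after a one-hour incubation at 37 °C without light, AlphaScreen emission is recorded.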
# * = called active by the depositor; u = inconclusive; x = no result given; & = joins results of further samples; [ ] = remark or other dose.
SMILES,D2 ag,Sfp inh,D2 PAM,PINK1 modulator,TRPV1 potentiator,CtBP-E1A blk,Six1-Eya2 inh
CONc1nc2nonc2nc1NOC,-6.6,3.8%,-6.3,1.8%,1.0,x,8.9
Cc1ccsc1CN(C)CC(=O)Nc1ccc([N+](=O)[O-])cc1Cl,8.2,-0.8%,-3.0,2.4%,20.9,u,u
CC1C(=O)N(c2ccc(S(=O)(=O)N(C)C)cc2)C1(/C=C/c1ccccc1)C(=O)NC1CCCC1 (stereo not drawn),2.0,4.5%,-0.8,2.4%,13.9,-3.1,-12.1
O=C(OCC(=O)N1CCN(Cc2ccccc2)CC1)c1ccc(Cl)cc1,-3.7,2.0%,-9.0,-0.3%,-21.9,x,2.5
COc1ccc(C(=O)Nc2ccc(NC(=O)c3cccs3)cc2)cc1[N+](=O)[O-],3.7,14.1%,-6.6,u,18.4,0.0,4.8
COc1ccc(/C=N/NC(=O)c2ccc3c(c2)NC(=O)C(C)(C)O3)cc1OC,9.6,13.5%,15.9,4.5%,-4.1,-3.5,-15.0
CCS(=O)(=O)c1nc(S(=O)(=O)c2ccc(C)cc2)c(NCc2ccccn2)s1,0.2,-11.9%,-18.5,-0.4%,-0.3,-18.8,-2.4
O=C1CC(c2cccnc2)c2cc3c(cc2N1)OCCO3 (stereo not drawn),-6.0,16.1%,-4.6,0.6%,-3.6,-8.1,7.2
COc1ccccc1NC(=O)CCSc1nnc(-c2ccncc2)o1,3.4,10.1%,3.2,0.4%,21.6,9.6,1.0
CCn1c(-c2cc(-c3ccccc3)sc2N)n[nH]c1=S,8.3,-25.8%,-7.5,-1.7%,4.3,-8.4,-14.8
CC(=O)Oc1ccc(C2C3=C(CC(C)(C)CC3=O)Nc3cc4c(cc32)OCCO4)cc1 (stereo not drawn),2.1,-2.0%,-4.1,2.4%,-21.9,-8.8,2.9
C[C@@H]1CN([C@H](C)CO)C(=O)CCCn2nncc2CO[C@@H]1CN(C)S(=O)(=O)c1cn(C)cn1,-9.3,x,-8.5,2.3%,x,-15.6,20.2
CC(=O)c1sc(NC(=O)c2cccs2)nc1C,-5.3,2.5%,-10.0,0.3%,-11.0,7.8,1.4
CCN(CC)S(=O)(=O)c1ccc(N2CCCCC2)c(NC(=O)/C(C#N)=C/c2ccc(OC)cc2)c1,0.8,17.1%,8.7,-0.8%,2.0,-11.1,-0.2
CCOc1ccc(Nc2nc(Cc3nnc(SCC(=O)NC4CCCC4)n3C)cs2)cc1,-0.5,89.1µM*,1.3,x,-5.6,9.7,-6.4
NS(=O)(=O)c1ccc(N2N=C(c3ccccc3)CC2c2ccccc2Br)cc1 (stereo not drawn),-1.5,x,-5.0,-1.0%,x,28.0,22.0
Cc1ccc(-c2nc3ccccc3c(=O)n2Cc2ccccc2)cc1,1.9,0.5%,6.2,-0.7%,3.5,-4.1,3.3
Cc1ccc(C(=O)Nc2nnc(S(=O)(=O)Nc3ccccc3C)s2)cc1C,-5.0,25.2%,-1.7,3.6%,7.2,-25.4,-8.5
CC[C@]1(C(=O)OC)[C@H]2C(=O)N(C)C(=O)[C@H]2[C@H]2CN=C(SCc3ccc(OC)cc3)N21,1.4,x,10.6,21.8%,x,-18.7,-12.6
CC(C)=NNc1nc(-c2ccccc2)c(C)s1,5.8,56.2µM*,0.5,14.0%,-8.4,-12.0,-7.7
CCC(C)NC(=O)CSc1ncnc2sccc12 (stereo not drawn),4.4,13.0%,-8.4,-0.9%,3.7,1.1,5.5
COc1ccc(/C=N/c2oc(-c3ccccc3)cc2C#N)cc1,2.8,11.6%,-2.6,-0.9%,-0.3,-25.1,-19.1
COc1ccc(OC)c(CNC(=O)C2CCC(=O)N2C(C)C)c1 (stereo not drawn),2.8,11.0%,-6.0,-1.5%,-1.1,-3.6,2.4
Cc1ccc(S(=O)(=O)c2nnn3c2nc(N2CCOCC2)c2ccccc23)c(C)c1,-2.6,-0.6%,-8.6,0.2%,-0.2,x,1.3
CCN(CC)CCC=C(c1cccs1)c1cccs1,1.9,x,-34.8,0.2%,x,3.4,19.6
CCc1ccc(C(=O)Cn2ncc(Cl)c(Cl)c2=O)cc1,-1.2,-1.5%,-11.4,-2.3%,-25.5,5.3,-12.1
CC1=C(C(=O)N(C(C)C)C(C)C)CC(CC(=O)NCc2cccs2)C(=O)N1CCC1=CCCCC1 (stereo not drawn),-4.2,x,-5.8,-0.3%,x,3.7,-2.8
CN(NC(=S)Nc1ccc(OC(F)F)cc1)C(=S)Nc1ccc(OC(F)F)cc1,-0.7,2.5%,-0.9,7.7%,-0.9,10.2,0.9
O=c1cnn([C@@H]2O[C@H](CO)[C@@H](O)[C@H]2O)c(=O)[nH]1,1.7,-2.0%,-5.8,0.2%,20.1,-14.5,8.0
O=C(NCCCn1ccnc1)C(=O)NCC1OCCCN1S(=O)(=O)c1ccc(Cl)cc1 (stereo not drawn),0.2,0.7%,-8.2,1.2%,-3.1,1.2,8.2
Cc1ccc(SCC(=O)N(Cc2nc(-c3ccccc3)no2)C(C)C)cc1,-2.6,14.3%,-18.0,15.5%,-1.9,18.6,-1.2
c1ccc(CN2CCC(N3CCN(Cc4ccc5c(c4)OCO5)CC3)CC2)cc1,-1.5,0.0%,-6.9,1.7%,-12.7,6.8,2.3
COc1ccc(/C=C(\C)c2nc(C)c(-c3ccccc3)c(=O)[nH]2)cc1,-4.1,16.1%,0.7,13.9%,20.4,1.2,-15.3
CCSc1ccccc1C(=O)N=C1NC(=O)CC2C(=O)NCCN12 (stereo not drawn),0.9,-0.7%,-20.9,-0.9%,-11.3,-1.2,1.8
CCN(C(=O)COC(=O)/C=C/c1ccc2c(c1)OCO2)c1c(N)n(Cc2ccccc2)c(=O)[nH]c1=O,3.5,x,-13.3,4.4%,x,x,2.0
CC1CCc2c(sc(NC(=S)NC(=O)c3ccccc3)c2C#N)C1 (stereo not drawn),-1.8,u,-1.2,-0.8%,7.4,5.6,6.5
CCC(=O)Nc1cc(NC(=O)CSc2nnc(C(C)C)n2CC)ccc1C,-3.2,12.3%,18.7,-0.5%,9.0,8.4,0.0
Cc1ccc(N(C)S(=O)(=O)c2ccc(-c3cnc(C4CC4)o3)cc2)cc1,1.4,-12.6%,-0.7,8.6%&-0.7%,-8.0,x,0.8
Cc1cc(Cl)ccc1NC(=O)Cn1cncn1,1.6,5.3%,-8.0,7.0%,-0.6,-6.1,1.5
COc1cc(-c2csc(N3CCOCC3)n2)cc(OC)c1OC,-4.3,u,-7.1,1.9%,1.4,-1.3,-11.4
CCOc1nc(-c2ccncc2)nc2ccccc12,-1.4,2.4%,-3.8,1.7%[38.3 µM],0.0,4.1,-1.9
COCCNC(=O)CSc1ccccc1C(=O)NC1CCCc2ccccc21 (stereo not drawn),-2.9,6.6%,-8.0,0.2%,25.5,-10.7,4.5
O=C(NCc1cccs1)C1CC(=O)N(c2ccc(Cl)cc2)C1 (stereo not drawn),-2.6,-0.7%,-5.2,3.6%,-19.7,5.2,7.6
Cc1ccc(S(=O)(=O)N(C)CC(=O)OCC(=O)NC(=O)NC(C)C)cc1,-1.6,6.3%,1.3,-0.3%,2.7,1.8,4.2
CC(C)CN(C(=O)COc1ccc(Br)cc1C=O)C1CCS(=O)(=O)C1 (stereo not drawn),-1.5,x,-18.9,3.2%,4.0,1.5,5.7
Cn1c(=O)c(=O)n(C)c2cc(S(=O)(=O)N3CCCCC3)ccc21,0.7,7.6%,-3.9,-19.1%[38.3 µM],-2.8,4.0,4.5
O=C(COc1ccc(NC(=O)c2cccs2)cc1)c1ccc(F)cc1,1.1,-4.7%,7.6,13.6%,-11.2,-3.8,7.1
O=C(Nc1ccc(F)cc1F)c1sccc1SCc1cccc(C(F)(F)F)c1,-1.6,7.8%,-14.3,9.3%,2.1,6.7,35.0
